Compound activity as filed in PubChem BioAssay.
INS promoter inh = TRM-6 insulin promoter activity inhibition; inhibition, % at 2 µM; AID 1273; TRM-6 cells (human fetal islet line), insulin promoter-eGFP reporter, imaging; reporter expression induced with tamoxifen; 130,000 compounds, 0.9% hits;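 active = inhibition above the mean plus 3 SD, with well images judged a real hit on visual review, cut at about 60% in these data, passing the limit was not always enough; inconclusive = inhibition over the cutoff but images rejected on review; inactive = inhibition not above the cutoff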
RGS16-Gao = modulates binding between human RGS16 and Galphao | O15492+P09471 | bead-based flow cytometry RGS16-Galphao binding, fluorescence; actives lie on both sides | binding response (% of control), % at 10 µM | 220,000 compounds, 0.38% hits | AID 1441;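 active = below 25% or above 175%, edge rows of some plates excepted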;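 note: Galphao activated by GDP with aluminum fluoride before binding; 100% = wells without compound and 0% = beads without RGS; some results beyond the cut were filed as inactive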
Target sequence (O15492 whole entry, looked up): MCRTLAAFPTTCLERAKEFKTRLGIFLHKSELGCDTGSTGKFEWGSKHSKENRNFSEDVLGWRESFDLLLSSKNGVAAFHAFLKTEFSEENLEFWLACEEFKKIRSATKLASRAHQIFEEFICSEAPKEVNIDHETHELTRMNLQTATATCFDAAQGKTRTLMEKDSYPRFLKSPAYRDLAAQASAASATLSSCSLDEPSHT
Target sequence (P09471 whole entry, looked up): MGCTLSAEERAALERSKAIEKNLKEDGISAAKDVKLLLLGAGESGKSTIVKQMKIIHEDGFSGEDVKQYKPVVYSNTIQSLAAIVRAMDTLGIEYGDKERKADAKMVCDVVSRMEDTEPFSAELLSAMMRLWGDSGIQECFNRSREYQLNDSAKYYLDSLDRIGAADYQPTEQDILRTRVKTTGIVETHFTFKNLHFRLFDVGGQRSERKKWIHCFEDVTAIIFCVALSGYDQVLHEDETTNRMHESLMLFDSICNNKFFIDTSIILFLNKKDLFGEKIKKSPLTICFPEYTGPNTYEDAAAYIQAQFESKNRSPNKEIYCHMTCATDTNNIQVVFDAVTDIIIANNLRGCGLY
PKD1 kinase inh = inhibitors of human PKD1 kinase. inhibition, %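 (about 10 µM by stock and volumes)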. AID 797. PKD1 kinase fluorescence polarization assay. 200,000 compounds, 0.056% hits;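 active = inhibition of 50% or more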;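 note: controls were vehicle for no effect and a reference inhibitor for full effect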
HSV replic up = HSV replication enhancement. HSV replication augmentation in cells, fold increase. maximum fold increase. 220,000 compounds, 0.005% hits;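 active = peak rise of 1.5-fold or more in the series; inconclusive = self-fluorescent or not available for retest; tested in PC3 cells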;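 note: first round at 10 µM; read as green reporter fluorescence; hits show the peak of a series up to 25 µM; 1 = signal of infected wells without compound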
GALR2 agonist = agonists of human galanin receptor 2 (GALR2). O43603. GALR2-expressing cells, agonist activation read-out. activation, %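 (tested at 5 µM)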. 140,000 compounds, 0.48% hits. AID 803;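 active = above mean plus 3 SD of all compounds, about 5% in these data, not always enough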;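 note: 0% = vehicle buffer wells and 100% = reference agonist at full effect; tested in CHO reporter cells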
Target sequence (O43603 whole entry, looked up): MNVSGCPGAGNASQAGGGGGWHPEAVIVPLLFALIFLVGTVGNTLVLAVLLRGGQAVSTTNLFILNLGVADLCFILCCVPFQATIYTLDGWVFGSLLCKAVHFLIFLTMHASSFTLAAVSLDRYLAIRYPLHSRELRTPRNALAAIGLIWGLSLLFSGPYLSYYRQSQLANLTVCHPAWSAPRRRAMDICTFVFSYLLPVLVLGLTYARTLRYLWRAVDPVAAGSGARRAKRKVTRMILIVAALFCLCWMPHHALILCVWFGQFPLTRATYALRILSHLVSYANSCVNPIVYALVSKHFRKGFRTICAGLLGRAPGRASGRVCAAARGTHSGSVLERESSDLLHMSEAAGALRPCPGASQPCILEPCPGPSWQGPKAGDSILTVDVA
INS promoter inh cell count = second read-out of INS promoter inh, no call of its own (marks repeat the call); normalized cell count, %; measured here: cell count, toxicity; reference of the scale not given here;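 cells exposed to compound for 48 h; stained nuclei by imaging scaled within each plate; lower means fewer cells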
HSV replic up primary fold = also measured in HSV replic up; calls as there; fold increase; compound at 10 µM; measured here: primary screen fold increase 10 uM; tested in PC3 cells;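 GFP signal in the first replicate; 1 = infected wells without compound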
The depositor's hits bear a star; i = inactive; ? = inconclusive; . = no result given.

Molecule	INS promoter inh	INS promoter inh cell count	RGS16-Gao	PKD1 kinase inh	HSV replic up	HSV replic up primary fold	GALR2 agonist
CC1=CC(C)(C)C(C(=O)O)C(C(=O)O)C1 (stereo unspecified)	-35	84	108	2	i	0.97	-1.6
COc1ccc(C(=O)NC2CCCCCC2)cc1S(=O)(=O)Nc1ccc(Br)cc1	3	71	104	2	i	1.1	-1.4
COc1cccc(CN(Cc2cccnc2)S(=O)(=O)c2ccc(-n3cnnn3)c(C)c2)c1OC	.	.	110	1	i	1	-2.3
COC(=O)c1ccccc1NC(=O)c1ccc(COc2ccc(C)c(C)c2)o1	-31	88	104	2	i	0.94	-0.5
Cc1c([N+](=O)[O-])c([N+](=O)[O-])nn1CC(=O)N1CCCCC1	4	85	110	-10	i	1	-0.7
CCOc1cccc(CN2CCN(Cc3ccc(C)o3)C(CCO)C2)c1O (stereo unspecified)	0	39	100	1	i	1.1	.
COc1ccc(OC)c(NC(=O)c2ccccc2SC)c1	-59	112	101	-2	i	0.97	-2.0
Cc1cc(C(=O)NCCCn2ccnc2)sc1-c1ccccc1	i	74	102	-3	i	0.85	-0.5
CC(C)[C@H](NC(=O)c1ccccc1)C(=O)OCC(=O)N1CCCc2ccccc21	38	54	100	-4	i	0.92	-2.2
CCn1c(SCC(=O)Nc2ccc(N3CCOCC3)c(Cl)c2)nnc1-c1ccc(N)cc1	7	80	98	4	i	0.95	-0.8
CCCC(=O)c1ccc(N2CCOCC2)c(F)c1	.	.	96	0	i	0.93	-0.6
Cc1ccc(CC2CC(=O)N(CC(=O)O)C2=O)cc1 (stereo unspecified)	25	91	105	-8	i	1.1	-2.1
O=C(O)CC/C(=N\NC(=O)c1ccc(F)cc1)c1ccc(Br)cc1	.	.	107	4	i	0.95	.
NC(=O)C1CCN(C(=O)c2cc(S(=O)(=O)N3CCOCC3)c(Cl)cc2Cl)CC1	55	144	98	-12	i	0.91	-1.1
CC1=CC(=C(C#N)C#N)C=C(C)N1Cc1ccccc1	.	.	102	4	i	1.2	.
COc1cccc(-c2n[nH]c(=S)n2Cc2ccco2)c1	.	.	94	.	i	0.96	.
CC(C)(C)c1cc(NC(=O)Nc2ccc(Br)cc2Cl)no1	-11	118	98	-5	i	0.92	.
Cc1nn(-c2ccccc2)c(Cl)c1C(=O)N(C)c1nc(-c2ccc(F)cc2)cs1	-17	104	105	-4	i	0.94	0.0
O=C(NCCNC(=O)c1ccc([N+](=O)[O-])cc1)c1ccncc1	-29	145	95	-8	i	1	.
O=C(NC1CC2CCCC(C1)N2C(=S)NCCc1ccccc1)C1CC1 (stereo unspecified)	.	.	104	3	i	1.1	.
Clc1ccc(CSc2nncn2-c2ccc3c(c2)OCCO3)cc1	.	.	99	.	i	0.71	.
CCOC(=O)c1cccc(NC(=O)CCc2ccccc2)c1	.	.	101	0	i	1.1	.
CCOC(=O)c1c(C)[nH]c(C)c1C=O	.	.	98	-3	i	0.93	.
Cc1ccc(S(=O)(=O)N2CCC(=O)N(C(COC(=O)Nc3ccccc3)Cc3ccccc3)CC2)cc1 (stereo unspecified)	-65	94	95	-14	i	0.85	-1.2
Nn1c(SCC(=O)NCc2ccc3c(c2)OCO3)nnc1C1CC1	-3	98	105	-1	i	1	-1.3

An excerpt of these results, field by field:
SMILES: CC(C)(C)c1cc(NC(=O)Nc2ccc(Br)cc2Cl)no1
  INS promoter inh: -11 | INS promoter inh cell count: 118 | RGS16-Gao: 98 | PKD1 kinase inh: -5 | HSV replic up: i | HSV replic up primary fold: 0.92 | GALR2 agonist: .
SMILES: Clc1ccc(CSc2nncn2-c2ccc3c(c2)OCCO3)cc1
  INS promoter inh: . | INS promoter inh cell count: . | RGS16-Gao: 99 | PKD1 kinase inh: . | HSV replic up: i | HSV replic up primary fold: 0.71 | GALR2 agonist: .
SMILES: O=C(O)CC/C(=N\NC(=O)c1ccc(F)cc1)c1ccc(Br)cc1
  INS promoter inh: . | INS promoter inh cell count: . | RGS16-Gao: 107 | PKD1 kinase inh: 4 | HSV replic up: i | HSV replic up primary fold: 0.95 | GALR2 agonist: .

Other entries.
Molecule	INS promoter inh	INS promoter inh cell count	RGS16-Gao	PKD1 kinase inh	HSV replic up	HSV replic up primary fold	GALR2 agonist
Cc1cc(N2CCOCC2)nc(SCc2c(Cl)cccc2Cl)n1	55	111	99	-6	i	0.81	0.7
CC(O)(CS(=O)(=O)Cc1ccc(Cl)cc1)C(=O)Nc1cccc(C(F)(F)F)c1 (stereo unspecified)	-103	92	102	1	i	0.9	-3.0
Nc1c(S(=O)(=O)c2ccccc2)nnn1-c1ccccc1	20	109	38	-6	i	0.67	-3.5
Cc1ccc(-c2nc(NC(=O)c3cc(C(C)(C)C)nn3C)sc2C)cc1Cl	.	.	100	.	i	1	.
COc1ccc(/C=C(/NC(=O)c2ccc(OC)cc2)C(=O)NCCc2c[nH]c3ccccc23)cc1	0	124	90	0	i	1.1	-0.7
CN(C)c1ncc(C(=O)O)cn1	22	103	97	0	i	0.98	-1.3
CCC(C)C(=O)Nc1cccc(SC)c1 (stereo unspecified)	18	128	105	-3	i	1	.
O=C(C1CCN(Cc2ccc(F)cc2)CC1)N(CCc1ccccc1)Cc1ccccc1	-35	70	103	3	i	1.1	0.2
O=C(CC1C(=O)NCCN1CC1CCCCC1)NCc1ccc(F)cc1 (stereo unspecified)	.	.	100	-1	i	0.97	.
OC(C#CCN1CCCC1)(c1ccccc1)c1cccnc1 (stereo unspecified)	.	.	88	.	i	0.96	.
COc1cc2ncc(C(=O)c3ccccc3)c(N3CCN(Cc4ccccc4)CC3)c2cc1OC	.	.	116	.	i	0.92	.
CC1(C)C2CCC1(CS(=O)(=O)N1CCCc3ccccc31)C(=O)C2 (stereo unspecified)	43	142	106	-3	i	0.91	-1.2
CS(=O)(=O)N(CC(=O)N1CCCC1)c1cc(C(F)(F)F)ccc1Cl	17	65	110	-2	i	1	.
COC(=O)c1nn(-c2ccccc2)c(Sc2ccc(C)cc2)c1/C=N/O	-67	84	154	7	i	0.95	-3.8
CC(/C=C/C=C/c1ccccc1)=N/NC(=O)C(O)c1ccccc1 (stereo unspecified)	.	.	100	.	i	0.87	.
CCc1sc(NC(=O)CN2CCOCC2)nc1-c1ccccc1	13	139	102	2	i	0.76	0.6
COC(=O)c1sccc1NC(=O)c1ccc(OC)c([N+](=O)[O-])c1	.	.	103	-7	i	0.77	.
Nc1nnnn1CC(=O)N/N=C/c1cc([N+](=O)[O-])ccc1Cl	.	.	101	0	i	0.8	.
CC(=O)N[C@@H](C)C(=O)N1CCN(S(=O)(=O)c2ccc(Cl)cc2)CC1	.	.	101	4	i	0.91	.
Cn1c(N)c(C(=O)COC(=O)CCC2CCCCC2)c(=O)n(C)c1=O	-10	180	117	-1	i	0.93	.
CNc1nc2sc3c(c2c(=O)n1C)CC(C)(C)SC3	0	105	101	-11	i	1.1	-1.1
CCCCCNC(=O)c1cccnc1SCC(=O)Nc1ccccc1OC	19	117	96	-1	i	0.9	-0.5
O=C(Nc1n[nH]c(C2CCCCC2)n1)C1CCCCC1	35	141	97	0	i	0.86	-3.0
O=C(NCC(c1ccco1)N1CCN(c2ccccc2F)CC1)OCc1ccccc1 (stereo unspecified)	.	.	108	-12	i	0.91	-0.2
Cc1ccc2nc(-c3ccncc3)c(NC3CCCCC3)n2c1	.	.	104	-4	i	0.87	.

Going on with the list.
Molecule	INS promoter inh	INS promoter inh cell count	RGS16-Gao	PKD1 kinase inh	HSV replic up	HSV replic up primary fold	GALR2 agonist
CC1Cc2ccccc2N1CC(=O)c1c(N)n(Cc2ccccc2)c(=O)n(C)c1=O (stereo unspecified)	.	.	98	-1	i	1.2	-0.3
CCCCOc1ccc(C(=O)N/C(=C\c2ccc(OC)cc2)C(=O)OCc2ccco2)cc1	.	.	100	8	i	0.94	-1.0
Cc1nc(C(=O)Nc2ccccc2)sc1C(=O)Nc1ccccc1	.	.	97	.	i	0.91	.
CCc1c(C)nc2ncnn2c1N1CCC(C(=O)Nc2ccc(C)cc2)CC1	-119	70	160	2	i	0.86	-0.5
C=CCNc1cc(N2CCCC2)ccc1[N+](=O)[O-]	.	.	105	-5	i	0.89	.
CCOc1cc(/C=N/NC(=O)C(=O)Nc2cc(Cl)ccc2C)ccc1O	.	.	102	7	i	0.95	.
CCOc1cc2[nH]c(=O)n(CCC(=O)NCCc3ccc(OC)c(OC)c3)c(=O)c2cc1OCC	9	59	104	-7	i	0.79	-2.1
Cc1cc(NC(=O)NN2CCOCC2)nn1-c1c(Cl)cc(Cl)cc1Cl	.	.	95	.	i	0.94	.
Cc1c(NC(=O)Nc2c(Cl)cccc2Cl)c(=O)n(-c2ccccc2)n1C	.	.	103	.	i	0.97	.
CC(C)CNC(=O)COC(=O)c1cc(S(=O)(=O)N(C)C)ccc1N1CCCC1	37	113	109	4	i	0.88	.
CCOC(=O)N/N=C/c1c(F)cccc1F	-57	74	103	-1	i	1.1	-1.1
Cc1ccc(S(=O)(=O)c2nc(C(C)(C)C)oc2N2CCOCC2)cc1	22	126	56	-6	i	1	-1.8
CCCc1cc(C(N)=O)c(NC(C)=O)s1	-11	90	99	0	i	1.1	1.1
COc1ncnc2sc(-c3ccccc3)cc12	.	.	100	-4	i	0.81	-1.7
N#Cc1ccccc1NC(=O)CSc1nnc(-c2ccncc2)o1	.	.	101	-1	i	0.98	.
Cc1ccccc1Oc1nc2ccccn2c(=O)c1/C=C(\C#N)C(=O)Nc1c(C)n(C)n(-c2ccccc2)c1=O	.	.	97	-3	i	1.1	-1.1
CC(=O)c1cccc(NC(=O)C2CCCN(S(=O)(=O)c3ccccc3)C2)c1 (stereo unspecified)	24	76	100	0	i	0.94	-2.5
O=C(N/N=C/c1cc2c(cc1Cl)OCO2)c1ccncc1	-8	134	114	-4	.	.	0.6
Oc1ccccc1-c1nnc(-c2ccc(C(F)(F)F)cc2)o1	15	86	100	3	i	1.1	-1.8
O=C(CSc1nnc(SCc2ccc(Cl)cc2)s1)N1CCOCC1	.	.	104	-11	i	0.91	-1.8
CC1(OC(=O)C2CCCC2)C(=O)C=C2C=C(c3ccsc3)N(C(CO)CO)C=C2C1=O (stereo unspecified)	.	.	102	.	i	0.99	.
Cc1cc(N2CCOCC2)nc(-c2ccc([N+](=O)[O-])cc2)n1	46	94	99	4	.	.	-0.5
O=C(Cn1nnc(-c2ccccc2)n1)N/N=C/c1ccco1	.	.	95	2	i	0.97	.
COc1cccc(C2C3=C(CCCC3=O)Nc3nc(-c4cc(OC)c(OC)c(OC)c4)nn32)c1 (stereo unspecified)	23	201	105	1	i	0.78	1.4
CN(C/C=C/c1ccccc1)C1CCCCC1	.	.	101	-6	i	0.8	.

Next section.
Molecule	INS promoter inh	INS promoter inh cell count	RGS16-Gao	PKD1 kinase inh	HSV replic up	HSV replic up primary fold	GALR2 agonist
CC(=O)N/C(=C\c1ccccc1)C(=O)NC(C)C(=O)O (stereo unspecified)	.	.	101	-3	i	1	.
Cc1cc(C)n(-c2ccc(C(=O)NC(C)C)cc2)n1	-76	69	99	-9	i	0.89	-1.4
O=C(COC(=O)/C=C/c1ccco1)Nc1cccc([N+](=O)[O-])c1	9	118	81	8	i	1.1	-1.1
CCOC(=O)c1cnc(SCc2nc(N)nc(Nc3ccccc3)n2)nc1N	-31	112	97	-3	?	.	-0.6
Clc1ccc(-c2csc(=Nc3cccnc3)n2CCCn2ccnc2)cc1Cl	47	67	104	-6	i	0.76	1.7
Clc1ccc(Cn2c(-c3cccnc3Cl)nc3ccccc32)cc1	.	.	100	-2	i	1.1	-2.6
Oc1ccc(F)cc1-c1cc(-c2ccc3c(c2)OCCO3)n[nH]1	28	97	94	7	i	0.96	-2.0
CCOC(=O)c1cnc(Nc2ccccc2)nc1C(F)(F)F	.	.	94	.	i	1.1	.
CC(=O)c1cc(C(=O)c2ccccc2)sc1Nc1ccccc1	47	90	97	0	i	0.85	0.4
CCOC(=O)C1CCN(C(=O)c2ccc(Br)o2)CC1	-19	91	103	-6	i	0.9	0.3
O=C(c1ccco1)N1N=C(C2CCCCC2)CC1(O)C(F)(F)F (stereo unspecified)	-100	92	100	3	i	1	.
CS(=O)(=O)c1ccc(Cl)c(NC(=O)Nc2ccccc2)c1	.	.	99	.	i	1.1	.
N=c1oc2ccc3ccccc3c2cc1C(N)=S	.	.	105	-6	i	0.97	.
COc1cccc(NC(=O)CSc2nnc(COc3ccc4c(c3)CCCC4)o2)c1	11	151	110	-17	i	1.1	-1.2
